From PubChem BioAssay
gsp ag – qHTS for Agonist of gsp, the Etiologic Mutation Responsible for Fibrous Dysplasia/McCune-Albright Syndrome: qHTS | gsp mutant cells, cAMP HTRF, 30 min; control for the full effect not named in the record | Potency, µM (top dose mostly 76.9 µM), for the others: at the highest dose activation (cAMP increase), most hits filed as activators | hit rate 0.13% among 340,000 | AID 624287, 2012; active = well fitted activation curve with a large enough effect; inconclusive = small, poorly fitted or top-dose-only effect, or another doubt; inactive = no such curve, though single readings can be large or run the other way; cell line not stated here;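 further: phosphodiesterase inhibitor Ro 20-1724 added with compounds to block cAMP breakdown; potency means the concentration at half of the fitted maximal effect; nearly all actives have a fitted effect of over 60% in size; about a fifth of the inactives were tested at one dose only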
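Cells in DMEM/10% FBS with G418 were pretreated with compounds in DMSO plus […] (300 uM stock) for 30 min at 37C. cAMP was measured by HTRF (cAMP-d2 plus anti-cAMP antibody-K) after 30 min at room temperature.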
ClpP mod – qHTS Assay for Activators of ClpP. ATP-dependent Clp protease proteolytic subunit (Bacillus subtilis (strain 168)), P80244. purified B. subtilis ClpP, FRET peptide cleavage, 20 min. Potency, µM (top dose mostly 57.5 µM), for the others: at the top dose activity change, negative = active. hit rate 1.9% among 340,000; active = well fitted falling curve with a large enough effect; inconclusive = small, poorly fitted or top-dose-only effect; inactive = no such curve, though single readings can be large or run the other way; further: potency means the concentration at half of the fitted maximal effect; the source files actives as falling curves though it sought activators and does not explain the sign; nearly all actives have a fitted effect of over 65% in size; many hits overshoot -100%
Target sequence (P80244 whole entry, looked up): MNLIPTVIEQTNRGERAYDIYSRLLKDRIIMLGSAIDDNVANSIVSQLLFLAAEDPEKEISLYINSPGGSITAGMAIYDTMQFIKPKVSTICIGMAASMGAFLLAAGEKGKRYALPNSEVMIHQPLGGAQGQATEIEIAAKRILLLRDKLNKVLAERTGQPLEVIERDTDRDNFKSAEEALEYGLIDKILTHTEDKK
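Buffer: 100 mM Tris/HCl pH8, 100 mM KCl, 0.05% low protease BSA, 2.5% glycerol, 0.01% Tween-20. ClpP 10 microg/mL final; 20 min RT; delta FRET normalized to ADEP and DMSO controls.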
PINK1 modulator – A Quantitative High throughput Screen to Identify Chemical Modulators of PINK1 Expression; Potency, µM (series often up to 76.6 µM), without a hit: at the highest dose activation (PINK1 increase), most hits filed as activators; PINK1 immunofluorescence, high-content cytometry, 24 h; hit rate 0.2% among 410,000; AID 624263, 2012; active = well fitted activation curve with a large enough effect; inconclusive = small, poorly fitted or top-dose-only effect; inactive = flat fitted curve, though single readings scatter; cell line not stated here;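 further: potency means the concentration at half of the fitted maximal effect; % of control where 0% means no effect; nearly all actives have a fitted effect of over 65% in size; a mitochondrial uncoupler was the plate control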
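Stable cell line treated 24 h with compounds at 5 concentrations (CCCP controls), then fixed and immunostained for PINK1 plus nuclear and cell stains; PINK1 immunofluorescence quantified by laser-scanning microplate cytometry.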
gsp antagonist – qHTS for Antagonists of gsp, the Etiologic Mutation Responsible for Fibrous Dysplasia/McCune-Albright Syndrome: qHTS | AID 624288, 2012 | Potency, µM (highest dose often 76.9 µM), for the others: top-dose activity change, negative = inhibition, hits mostly inhibitors | gsp-mutant cells, cAMP HTRF, 30 min; control for the full effect not named in the record | hit rate 0.4% among 340,000; active = falling curve of any shape with a large fitted effect; inconclusive = falling curve, mostly with a smaller effect; inactive = flat or rising curve; cell line not stated here;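 further: intracellular cAMP measured with PDE inhibitor Ro 20-1724 present during compound exposure; potency means the concentration at half of the fitted maximal effect; on the % scale 0 is the no-effect control and ±100 the full control effect; nearly all actives have a fitted effect of over 65% in size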
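Measurement of cellular cAMP by homogeneous time-resolved fluorescence following a 30 min compound exposure at 37C. The PDE inhibitor […] was present throughout; the assay buffer was DPBS with 0.05% BSA and 0.005% Tween 20.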
Sfp inh – qHTS Assay for Inhibitors of Bacillus subtilis Sfp phosphopantetheinyl transferase (PPTase); Potency, µM, inactives show max response, negative = inhibition, usual class: inhibitors; AID 1490, 2009; Biochemical Sfp PPTase activity, qHTS; 4'-phosphopantetheinyl transferase ffp (Bacillus subtilis), Q9F4F7; hit rate 3.5% among 310,000; active means well fitted inhibition curve with a large enough effect; inconclusive means small, poorly fitted or top-dose-only effect, or another doubt; inactive means no such curve, though single readings can be large or run the other way;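 further: the enzyme is Sfp with the accession as filed and its product quenches rhodamine fluorescence; potency means the concentration at half of the fitted maximal effect; 0% = enzyme reaction without inhibitor and -100% = no enzyme wells; top concentration of the series not given in the record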
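With Hepes-Na pH 7.6 buffer containing 10 mM MgCl2, Sfp (15 nM) modified BHQ-2-YbbR (12.5 uM) using rhodamine-CoA (5 uM). Two reads 30 minutes apart at 525/598 nm yielded each well's rate.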
Menin MLL FP FL – qHTS Assay for Inhibitors Targeting the Menin-MLL Interaction in MLL Related Leukemias: Competition With Fluorescein Labeled MLL-derived Peptide; FP activity change, % at 61.4 µM; Fluorescence polarization, fluorescein-MLL peptide displacement from menin; AID 1766, 2009; 290,000 tested, under 10 active; inconclusive = falling polarisation curve, or a change in total fluorescence; inactive = total fluorescence flat and polarisation flat or rising; no compound was filed as active; the % refers to the polarisation; negative = inhibition;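 further: % of control where 0% means no effect; inhibitors lower the polarisation; unlabelled MLL peptide was the positive control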
D2 ag – Beta-Arrestin HTS for Positive Allosteric Modulators of the Human D2 Dopamine Receptor: Agonists. D(2) dopamine receptor (Homo sapiens), P14416. DiscoveRx PathHunter D2 beta-arrestin, luminescence, 90 min; 100% = 57 uM dopamine signal. activation, % (concentration not given with the values). hit rate 0.084% among 360,000. AID 624465, 2012; in the data active = activation above about 40%; inconclusive = about 15% to 40%; inactive = below about 15%; further: compound concentration not given in the record; the text of the record calls up to 30% inactive
Target sequence (P14416 whole entry, looked up): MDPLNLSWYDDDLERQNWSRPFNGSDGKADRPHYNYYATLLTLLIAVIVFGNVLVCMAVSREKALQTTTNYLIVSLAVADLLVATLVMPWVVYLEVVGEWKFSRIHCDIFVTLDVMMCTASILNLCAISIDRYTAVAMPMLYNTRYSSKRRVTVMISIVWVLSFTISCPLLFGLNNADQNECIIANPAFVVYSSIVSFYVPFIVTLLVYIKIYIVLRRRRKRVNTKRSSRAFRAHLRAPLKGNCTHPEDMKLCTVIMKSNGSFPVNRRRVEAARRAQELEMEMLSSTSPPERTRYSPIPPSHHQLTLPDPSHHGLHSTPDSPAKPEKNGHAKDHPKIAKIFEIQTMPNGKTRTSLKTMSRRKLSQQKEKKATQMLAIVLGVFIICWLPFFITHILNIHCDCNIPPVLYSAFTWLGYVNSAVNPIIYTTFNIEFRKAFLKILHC
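DiscoveRx PathHunter D2 beta-arrestin cells (2,100/well) attached overnight, then compound-stimulated 90 min at 37 C in HBSS/10 mM HEPES/0.1% Tween-20 buffer; beta-galactosidase complementation read by luminescence after 1 h at ambient temperature. Dopamine 57 uM final (EC100) as control.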
* = called active by the depositor; ? = inconclusive; . = no result given; & = joins results of further samples; [ ] = another dose, or the depositor's remark.

SMILES	gsp ag	ClpP mod	PINK1 modulator	gsp antagonist	Sfp inh	Menin MLL FP FL	D2 ag
Cn1c(NC(=O)c2ccco2)c(-c2ccccc2Cl)c(=O)c2ccccc21	?	0.6%	1.2%	-3.2%	16.2%	1.1	-2.9
CC(=O)OC1CC[C@]2(C)C(CC(OC(C)=O)[C@@]3(C)C4=CC(=O)OC(c5ccoc5)[C@]4(C)CCC23)C1(C)C (some centres undefined)	.	.	3.0%	.	0.3%&-15.1%&-24.1%	-1.0&-1.2&-2.7	.
COC(=O)COC(=O)CC(CC(N)=O)c1ccccc1 (centres undefined)	10.6%	0.8%	.	2.1%	10.1%	0.4	2.0
Cc1ccc(NC(=O)CSc2nnnn2C)cc1S(=O)(=O)N(C)C	-26.7%	-3.3%	0.3%	5.6%	10.0%	-2.3	0.3
CC1CN(c2c3c(nc4ncnn24)CCCC3)CC(C)O1 (centres undefined)	28.4%	0.5%	1.3%	20.4%	9.2%	.	-2.6
COc1ccc(S(=O)(=O)Nc2ccc3c(c2)n(C)c(=O)n3C)cc1	10.3%	.	-0.7%	10.0%	5.8%	2.4	-1.0
CSc1nc2ccccc2n1Cc1cccc([N+](=O)[O-])c1	-4.5%[15.4 µM]	.	1.6%	-2.9%	?	6.8	-7.6
C(=N\Nc1nc2ccccc2[nH]1)/c1ccccc1	-9.3%[15.4 µM]	-0.7%	5.4%	?	-7.9%	0.8	0.3
CCC(c1nnc(SCC(=O)Nc2cc(Cl)ccc2C#N)n1C1CCCCC1)N(C)C (centres undefined)	18.3%	-2.3%	0.7%	2.2%	-8.4%	0.6	-6.2
CCOC(=O)c1[nH]c(C)c(C(=O)Nc2ccc(C)c(Cl)c2)c1C	?	1.7%	8.5%[38.3 µM]	0.3%	16.3%	0.1	2.1
CCCc1cc(-c2[nH]ncc2-c2ccc(C(=O)OCC)o2)c(O)cc1O	-48.0%[inhibitor]	-28.0%	-7.3%[38.3 µM]	-25.6%	11.7%	-3.6	7.0
COC(=O)c1sccc1NC(=O)COc1ccccc1Cl	-34.0%[inhibitor]	-0.7%	5.2%	-10.8%	-26.8%	3.0	-0.6
C[C@@H](Nc1nc(-c2ccccc2)nc2c1oc1ccccc12)C(=O)O	7.2%	-1.0%	?	-18.1%	21.7%	-0.4	-1.9
COc1cc(OC)c(OC)cc1/C=C/c1cc(C(=O)O)c2ccccc2n1	6.0%	-5.6%	1.3%	8.5%	?	0.2	-2.6
COc1ccc(CCNC(=O)C(C)n2nc(C)c3c(C)n(-c4ccc(C)cc4)nc3c2=O)c(OC)c1 (centres undefined)	-42.8%[inhibitor]	-1.6%	-0.2%	-21.8%	13.2%	0.2	1.7
COc1cc(F)ccc1-c1cc(C(=O)NCC2CCCCC2)[nH]n1	.	-1.7%	2.2%	.	.	.	2.9
O=C(c1ccco1)N1CCc2[nH]nc(-c3ccccc3)c2C1	2.3%	0.2%	0.2%	4.0%	11.3%	.	4.5
Cc1noc(C)c1C(=O)NCCC1=CCCCC1	2.4%	-1.1%	8.7%[38.3 µM]	4.3%	-1.6%	0.4	-0.2
COc1ccc2[nH]c(=O)c(CN(C)C(=O)COc3ccccc3)cc2c1	1.4%	31.6µM*	-1.9%	6.3%	12.6%	3.9	-0.1
Clc1ccc(-c2nc3cnccn3c2NC2CCCC2)cc1	?	-21.5%	-2.8%	-5.1%	-7.7%	3.0	2.0
O=C(O)C1CSC2(c3ccc(F)cc3)CCC(=O)N12 (centres undefined)	-0.8%	.	-2.2%	10.5%	7.0%	-4.2	1.4
Cc1onc(-c2c(Cl)cccc2Cl)c1C(=O)NCc1ccc(S(N)(=O)=O)cc1	-0.9%	1.7%	2.7%	7.0%	7.2%	-1.4	0.9
Cc1ccc2c(c1)N(CCC(=O)NCc1ccc3c(c1)OCO3)C(=O)CO2	-7.5%	0.3%	-0.1%	?	1.0%	0.9	-3.0
O=C(NC(=S)N1CCN(c2nc(-c3ccccc3)cs2)CC1)c1cncc(Br)c1	-3.2%	0.7%	7.5%	-17.3%	18.5%	0.5	-4.6
CCOC(=O)c1c(NC(=O)CSc2nnnn2CC)sc(C)c1C	?	-1.5%	1.8%	3.3%	-5.1%	4.4	-1.6
Cc1ccc(NC(=O)c2ccc(OCC3CCCO3)cc2)nc1 (centres undefined)	-7.9%	1.8%	1.7%	4.2%	.	.	-3.6
COc1ccccc1-c1nc2cc3ccccc3cc2nc1-c1ccccc1	-1.0%	-5.0%	1.7%	-11.2%	0.3%	1.3	?
CCOC(=O)/C(=N\Nc1ccc(Br)cc1)N1CCN(c2ccccc2OC)CC1	-5.3%[15.4 µM]	.	1.7%	4.2%	?	-4.1	-0.1
COCCn1c(=O)c(C)nc2cnc(Oc3ccc(OC)cc3)nc21	.	.	-0.5%	.	8.4%	1.6	.
Cc1cc(C)cc(OCC(=O)NNC(=O)c2ccoc2C)c1	-44.8%[inhibitor]	-0.1%	6.8%[38.3 µM]	-6.2%	12.9%	0.1	-3.5
COCCN(Cc1ccc(C)c(Br)c1)C(=O)Cn1cnc(S(=O)(=O)N2CCCC2)c1	-51.4%[inhibitor]	0.4%	1.0%	8.6%	3.5%	.	-0.9
CCc1nn(CCCC(=O)NCc2ccc(C)cc2)c(=O)c2cc3occc3n12	-0.4%	-1.2%&-2.6%	-0.6%&-0.6%	6.6%	13.3%	-0.3	-2.3
CCC(CC)Nc1ccc(C(CC(N)=O)NC(=O)c2ccccc2)cc1[N+](=O)[O-] (centres undefined)	-10.7%	1.6%	-0.7%	3.5%	-2.3%	-3.4	-4.0
COC(=O)c1ccc(C(=O)OC)c(NC(=O)c2cnc3n(c2=O)CCS3)c1	-32.0%[inhibitor]	?	-2.6%[38.3 µM]	2.4%	-1.4%	3.3	0.3
CCOC(=O)CC1=C(C(=O)OCC)C(c2cccnc2)C(C#N)=C(N)O1 (centres undefined)	2.1%	-1.2%	3.2%	-4.5%	12.3%	-6.7	-1.3
OCc1nc2c(ccc3ccccc32)[nH]1	-28.7%	.	0.9%	-4.4%	11.4%	1.2	2.2
COc1ccccc1/C=C/C=N/NC(=O)CC1C(=O)NN=C1C (centres undefined)	1.2%[15.4 µM]	-0.6%	-0.6%	-10.0%	-2.5%	-1.7	-3.0
O=C(COC(=O)c1cccnc1Cl)NCCc1ccc(F)cc1	11.3%	2.4%	3.3%	14.1%	.	.	4.8
COc1cc(-c2nnc(COC(=O)c3cc(C)no3)o2)cc(OC)c1OC	-7.0%[15.4 µM]	27.3%	6.8%	7.0%	11.9%	.	-1.8
CSc1ncc(CN2CCN(C3CCCCC3)C(CCO)C2)cn1 (centres undefined)	-8.9%	.	-0.1%	8.3%	17.5%	-1.7	0.8
CCOC(=O)C1CCCN(S(=O)(=O)c2ccc(-n3cnnn3)c(C)c2)C1 (centres undefined)	-7.9%	.	3.0%	6.9%	13.1%	0.0	2.0
CC(=O)c1ccc(O)c(CO)c1	2.3%	-1.3%	-0.1%	7.6%	21.3%	1.4	-0.7
Cc1ccc(S(=O)(=O)NCc2ccccc2)cc1C(=O)NCc1ccccn1	?	0.8%	0.1%	8.4%	8.5%	.	-0.5
COc1ccc(OC)c(-c2csc(NC(=O)COC(=O)C3CCC3)n2)c1	-1.8%	-0.5%	3.1%	-0.8%	.	.	-4.9
O=C(NCN1C(=O)C2C3C=CC(C3)C2C1=O)Nc1ccccc1O (centres undefined)	-2.1%[15.4 µM]	.	1.0%	3.4%	-7.0%	1.0	-1.0
Nc1nc2n(n1)C(c1ccco1)CC(c1ccccc1)N2 (centres undefined)	0.5%	-28.6%	-1.0%	6.5%	-0.7%	3.2	-1.9
COc1cccc(C(C)NC(=O)c2ccncc2)c1 (centres undefined)	-11.5%[15.4 µM]	0.4%	-0.4%	-25.3%	9.5%	-2.4	-0.8
COc1ccc(-c2nonc2NC(=O)c2ccco2)cc1OC	-21.4%	-5.5%	-1.2%	6.9%	12.4%	.	6.4
CCOc1ccc2[nH]c(C)c(CN3CCN(CC)CC3)c(=O)c2c1	?	15.8µM*	-2.5%	8.0%	-5.7%	2.7	-4.4
O=C(COc1ccc2cc(Br)ccc2c1Br)N1CCOCC1	?	1.7%	2.5%	8.3%	-5.8%	.	-4.4

Next section
SMILES	gsp ag	ClpP mod	PINK1 modulator	gsp antagonist	Sfp inh	Menin MLL FP FL	D2 ag
COc1ccccc1N1C(=O)c2ccc(C(=O)Nc3ccccc3O)cc2C1=O	10.2%	1.4%	-0.1%	-17.9%	-1.9%	-10.2	1.3
CCOCCCNc1ncc2c(n1)CC(c1ccc(C)cc1)CC2=O (centres undefined)	-12.9%	-3.0%	-1.5%	4.5%	13.0%	-0.5	0.1
CC(=O)c1cccc(NC(=O)C2CCN(S(=O)(=O)c3ccccc3)CC2)c1	23.3%	0.9%&-0.6%	-0.9%	4.0%	1.6%	4.5	0.7
COc1ccc(-n2nc3c(c2NC(=O)COc2ccccc2OC)CS(=O)(=O)C3)cc1	-27.0%	1.5%	1.8%	.	.	.	6.7
NC(=O)c1ccsc1NC(=O)COC(=O)c1ccncc1	21.2%[15.4 µM]	.	-2.2%	-0.7%	.	.	-2.4
COc1ccc(C2N=C(N)N=C(N)N2c2ccccc2OC)cc1OC (centres undefined)	-19.6%	1.1%	-1.6%	12.8%	15.6%	-4.3	-3.3
CN=C(Nc1cccc(Cl)c1)SC1CC(=O)N(c2ccc(OC)cc2)C1=O (centres undefined)	9.3%[15.4 µM]	.	0.0%	-28.7%	1.2%	-0.6	2.6
CSc1ccc(CN(C)CC(=O)N(C)CC(=O)Nc2ccccc2Br)cc1	-65.8%[inhibitor]	-1.3%	-0.9%	-2.5%	.	.	-3.7
COc1ccc(S(=O)(=O)CCC(=O)NCCc2ccc(C)cc2)cc1	12.8%	-1.8%	?	-0.6%	-2.7%	1.7	0.1
